NS1 function inh: qHTS Assay for Inhibitors of Influenza NS1 Protein Function; S. cerevisiae slowed by influenza A NS1, growth recovery by OD600; Potency, µM (doses to about 46.1 µM), without a hit: at the top dose activity, positive = more growth; 270,000 compounds, 0.4% hits; note: actives are rising curves; nearly all actives have a fitted effect of over 50% in size
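Growth recovery, yeast-based: influenza A NS1 expressed in S. cerevisiae causes slow growth, and suppressors are detected by OD600. The parent strain without NS1 is used as positive control.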
MARV entry inh: qHTS for inhibitors of binding or entry into cells for Marburg Virus; Marburg virus pseudotyped entry inhibition, cell reporter; control for the full effect not named in the record; about a third of the inactives were read at about 46 µM; Potency, µM (titrated, usually from 37.8 µM), inactives show at the highest dose activity change, negative = inhibition, hits mostly inhibitors; 300,000 compounds, 1.8% hits; AID 540276, 2011; active = well fitted inhibition curve with a large enough effect; inconclusive = small, poorly fitted or top-dose-only effect, or effect the other way; inactive = flat fitted curve, though single readings scatter; tested in HEK293 cells; about a fifth of its hits are not listed in these tables; note: % is set by controls: 0 for no effect and ±100 for the full control effect; luciferase read-out
Lassa entry inh: qHTS for Inhibitors of binding or entry into cells for Lassa Virus; Lassa virus pseudotype entry inhibition, cell reporter; control for the full effect not named in the record; Potency, µM (doses to about 37.9 µM), inactives show at the highest dose activity change, negative = inhibition, hits mostly inhibitors; 300,000 compounds, 1.2% hits; AID 540256, 2011; active means well fitted inhibition curve with a large enough effect; inconclusive means small, poorly fitted or top-dose-only effect, or effect the other way; inactive means flat fitted curve, though single readings scatter; tested in HEK293 cells; note: % is set by controls: 0 for no effect and ±100 for the full control effect; nearly all actives have a fitted effect of over 50% in size; luciferase read-out
StopGo reporter: High Throughput Screening for Foot and Mouth Disease Virus Antivirals; human cells with a luciferase reporter of 2A StopGo recoding; control for the full effect not named in the record; Potency, µM (top dose mostly 57.9 µM), inactives show at the highest dose signal change, negative = less light; AID 1159524, 2015; 410,000 compounds, 1.2% hits; active = well fitted falling curve with a large enough effect; inconclusive = small, poorly fitted or top-dose-only effect; inactive = no such curve, though single readings can be large or run the other way; tested in HEK293T cells; note: % is set by controls: 0 for no effect and ±100 for the full control effect; nearly all actives have a fitted effect of over 45% in size; luciferase light after 4 h
SARS PLpro yeast: qHTS of Yeast-based Assay for SARS-CoV PLP; 330,000 compounds, 0.19% hits; AID 485353, 2010; S. cerevisiae expressing SARS-CoV PLpro, growth rescue; control for the full effect not named in the record; Potency, µM (titrated, usually from 32.9 µM), inactives show top-dose activity, positive = growth rescue; note: 0% is about no effect; nearly all actives have a fitted effect of over 55% in size; growth read by luminescence after 48 h
Cruzain inh Det: qHTS Assay for Promiscuous and Specific Inhibitors of Cruzain (with detergent). Potency, µM, for inactives: max response, negative = inhibition, most hits filed as inhibitors. Cruzipain (Trypanosoma cruzi), P25779. purified cruzain, Z-FR-AMC fluorescence, 0.01% Triton. 200,000 compounds, 0.43% hits; active = well fitted curve in the direction sought with a large enough effect; inconclusive = small, poorly fitted or top-dose-only effect, or another doubt; inactive = no such curve, though single readings can be large; an effect the other way counts as inactive or inconclusive;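 note: plate controls were neutral wells for no effect and buffer without enzyme for full effect; nearly all actives have a fitted effect of over 40% in size; top concentration of the series not given in the record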
Target sequence (P25779 123-467 limits assumed): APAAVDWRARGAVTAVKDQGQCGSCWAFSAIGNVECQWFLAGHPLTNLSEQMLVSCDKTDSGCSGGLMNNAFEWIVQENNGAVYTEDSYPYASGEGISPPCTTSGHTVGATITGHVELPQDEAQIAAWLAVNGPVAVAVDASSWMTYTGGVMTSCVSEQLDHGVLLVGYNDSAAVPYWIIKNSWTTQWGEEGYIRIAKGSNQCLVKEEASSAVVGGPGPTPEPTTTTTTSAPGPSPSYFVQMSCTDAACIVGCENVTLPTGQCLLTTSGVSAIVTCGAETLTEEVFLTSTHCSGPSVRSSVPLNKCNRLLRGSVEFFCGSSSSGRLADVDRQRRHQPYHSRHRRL
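Z-FR-AMC hydrolysis (2 uM substrate) by cruzain (1.5 nM) monitored kinetically at ex 360/em 450 nm after 15 min room-temperature compound exposure; 0.01% Triton X-100, pH 5.5, 5 mM DTT.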
RE007 growth inh: qHTS Assay for Inhibitors of the HIV-1 protein Vpr; Potency, µM (series often up to 92.2 µM), for inactives: at the highest dose activity change, negative = less growth; AID 651644, 2012; 360,000 compounds, 0.21% hits; S. pombe RE007 Vpr strain, BacTiter-Glo ATP luminescence, 24 h; control for the full effect not named in the record; active = well fitted falling curve with a large enough effect; inconclusive = small, poorly fitted or top-dose-only effect; inactive = no such curve, though single readings can be large or run the other way;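 note: % is set by controls: 0 for no effect and ±100 for the full control effect; nearly all actives have a fitted effect of over 50% in size; the assay follows cell death caused by Vpr and the record does not say whether a fall means rescue or toxicity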
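Fission yeast RE007 carrying one integrated HIV-1 vpr copy, seeded at OD 0.01 in PMG+AL medium with 23 nL pinned compound. Grown 24 h at 30 degrees; viability read by BacTiter-Glo luminescence after 5 min.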
Cruzain noTriton: qHTS Assay for Promiscuous and Specific Inhibitors of Cruzain (without detergent); AID 1476, 2009; purified cruzain, Z-FR-AMC fluorescence, no detergent; 200,000 compounds, 2.3% hits; Potency, µM, without a hit: max response, negative = inhibition, hits mostly inhibitors; Cruzipain (Trypanosoma cruzi), P25779; active = well fitted curve in the direction sought with a large enough effect; inconclusive = small, poorly fitted or top-dose-only effect, or another doubt; inactive = no such curve, though single readings can be large; an effect the other way counts as inactive or inconclusive;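 note: plate controls were enzyme without inhibitor for no effect and buffer without enzyme for full effect; nearly all actives have a fitted effect of over 40% in size; top concentration of the series not given in the record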
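Detergent-free condition (0.00005% Triton X-100) in acetate buffer pH 5.5 with DTT. 1.5 nM enzyme and compound were pre-mixed 15 min, then 2 uM Z-FR-AMC substrate added; reaction progress from fluorescence change between first and third reads (60 s).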
An asterisk follows results filed as active; ? = inconclusive; . = not tested or not shown; & = joins results of further samples; [ ] = dose if it differs, or a comment. Unless noted, calls come from the whole dose curve; as a rule, active means well fitted rising curve with a large enough effect; inconclusive means small, poorly fitted or top-dose-only effect; inactive means no such curve, though single readings can be large or run the other way. Potency is the fitted concentration of half-maximal effect.

Fields: NS1 function inh, MARV entry inh, Lassa entry inh, StopGo reporter, SARS PLpro yeast, Cruzain inh Det, RE007 growth inh, Cruzain noTriton
C=CCN(C(=O)c1csnn1)C(C(=O)NC1CCCCC1)c1ccc(Cl)cc1 (stereo not drawn)
→ -6%, -1%[46.1 µM], -2%, 3%, -2%, ., -4%, .
CCc1ccc(S(=O)(=O)Nc2ccc(O)c3c(=O)cc(-c4ccccc4Cl)oc23)cc1
→ 13%, ., ., 36%[activator], -3%, ., 17%, .
CC(C)NC(=O)Cn1cnc2c(cnn2-c2ccc(F)cc2)c1=O
→ 3%, 6%[46.1 µM], -5%[46.1 µM], 7%, 11%, ., -21%, .
Nc1c(S(=O)(=O)c2cc(Cl)ccc2Cl)c2nc3ccccc3nc2n1CCN1CCOCC1
→ 26%, -2%, ?, 45%[activator], -9%, -11%, 8%, ?
O=c1oc2ccccc2cc1-c1csc(Nc2ccc(O)cc2)n1
→ 5%, ?, ?, -99%, -11%, ., -14%, .
CC1(C)CCC=[N+]1[O-]
→ -3%, 25%&25%&25%&-4%&25%, 2%, ., ., 4.9%, ., 0%
CCn1c(CNC(=O)C23CC4CC(CC(C4)C2)C3)nnc1SCC(=O)Nc1ccc(F)cc1
→ ., -3%[46.1 µM], -5%[46.1 µM], -14%, ., 2.2%, ., 12%
CCOC(=O)c1sc(=S)n(-c2ccc(Cl)cc2)c1C
→ -9%, -1%, 1%, -7%, 5%, -5.0%, -28%, 9%
COc1ccc(S(=O)(=O)NCc2ccccn2)cc1NC(=O)c1ccc(C)cc1
→ ., 4%[46.1 µM], ?, 38%[activator], 6%, ., 6%, .
N/C(=N\OC(=O)c1ccc2c(c1)OCO2)c1cccc([N+](=O)[O-])c1
→ -1%, ?, 1%, -1%, -1%, ., -19%, .
CN(C)C(CNC(=O)c1cccc(S(=O)(=O)N2CC3(C)CC2CC(C)(C)C3)c1)c1ccco1 (stereo not drawn)
→ 3%, ?, 10%, -1%, 3%, 0.2%, 8%, 15%
Cc1nc(-c2cc(-c3nc(-c4cc(C(F)(F)F)cc(C(F)(F)F)c4)no3)no2)cs1
→ -2%, 1%, ., 0%, 1%, ., 13%, .
Nn1c(SCC(=O)N2CCCc3ccccc32)nnc1-c1ccccc1
→ 2%, 10%, 7%, -14%, 2%, 2.4%, 4%, 4%
Oc1ccc(Cl)cc1C(C#Cc1ccccc1)N1CCOCC1 (stereo not drawn)
→ 29%, ?, -30%, ?, -16%, -5.1%, -9%, 5%
CCc1cc(=O)oc2cc(C)cc(OCC(C)=O)c12
→ -2%, -31%, 10%, -24%, -1%, ., -9%, .
Cn1c(=O)n(Cc2ccc(Br)cc2)c2ccccc21
→ 1%, ?, ?, ?, -1%, ., -14%, .
Cc1ccc(O)c(C(=O)c2cnn(C(=O)Cc3csc(C)n3)c2)c1
→ -156%, 18%, 3%, 0%, -4%, -1.7%, 25µM*, 0%
COc1ccc(OCC(=O)Nc2ccc3oc(=O)ccc3c2)cc1
→ 6%, 1%[46.1 µM], 7%[46.1 µM], -15%, 0%, ., 9%, .
O=C(Nc1cccc(S(=O)(=O)NC2=NCCC2)c1)c1cc(-c2ccco2)nc2ccccc12
→ 15%, -20%, ?, 27%, 0%, ., -17%, .
COc1cc(OC)c(C(=O)N/N=C/c2ccoc2)cc1OC
→ 1%, -4%[46.1 µM], 26%[46.1 µM], 3%, 5%, ., -1%, .
Cc1nnc2c3ccccc3c(-c3cccc4ccccc34)nn12
→ 6%, -25%, -18%, 17%, 3%, -0.5%, 16%, 0%
C[N+](C)(C)c1ccccc1
→ 2%, ., ., 0%, 1%, ., -7%, .
COc1cc(OC)c(OC)cc1/C=C1/C(=O)N=C(N)N1C
→ ., 9%, -5%, -6%, 0%, ., -22%, .
Cc1ccc(C)c(NC(=O)CSc2nnc(-c3ccncc3)n2N)c1
→ -2%, -29%, 1%, 9%, 3%, -1.1%, -9%, -7%
CCn1c(-c2cc(C3CC3)nc3ccccc23)n[nH]c1=S
→ 8%, ?, 4%, -26%, -26%, -1.9%, ., -3%
Fc1ccc(NC(=S)N2N=CCC2c2ccccc2)cc1 (stereo not drawn)
→ -7%, ?, ?, 19%, 1%, 0.4%, -11%[3.69 µM], -6%
Cc1oc(-c2cccc(Br)c2)nc1CN1CCC(C(=O)NCc2ccccc2)CC1
→ ., ., -3%[46.1 µM], -6%, ., 1.6%, ., -9%
Cc1ccc(/C=C/C(=O)Nc2ccc(N(C)C)cc2)o1
→ -5%, -7%, -16%, 24%, -21%, -10%, -17%, -30%
Cc1cc(S(=O)(=O)N2CCCOC2CNC(=O)C(=O)NCCc2ccco2)ccc1F (stereo not drawn)
→ 9%, -5%, -16%, 0%, -4%, ., 0%, .
Cc1ccc(/C=C/C(=O)OCC(=O)c2ccc3c(c2)NC(=O)CO3)o1
→ ., -28%[46.1 µM], -34%[46.1 µM], -23%, -11%, ., -10%, .
CCCOc1ccc(OCCn2nc(C(=O)O)c3ccccc3c2=O)cc1
→ ., 6%[46.1 µM], 13%, -15%, -2%, ., 8%, .
COc1ccc(-c2nc(CS(=O)CC(=O)N3CCN(C)CC3)c(C)o2)cc1 (stereo not drawn)
→ 12%, ., ., 9%, 0%, ., -2%, .
CC(C)CN(CC(C)C)C(=S)Nc1ccc(Cl)cc1
→ -5%, -28%[46.1 µM], ?, -7%, 0%, ., -19%, .
CCN1CCN(c2ccc(S(=O)(=O)N3CCCCC3)cc2NC(=O)c2ccccc2)CC1
→ ., -6%, -7%[46.1 µM], -5%, 1%, ., 2%, .
COC(=O)CCCC(=O)N1CCOCCN(C(=O)CCCC(=O)OC)CCOCC1
→ 10%, 3%[46.1 µM], 18%, -15%, -6%, 4.8%, 6%, -3%
COc1ccc(-c2cc(C(=O)NCc3ccco3)no2)cc1OC
→ 0%, 2%, -5%, 34%[activator], -7%, -2.0%, -2%, 0%
COc1ccccc1NC(=O)CC1C(=O)NCCN1C(=O)Nc1ccccc1 (stereo not drawn)
→ 8%, 1%, 0%, -20%, -9%, 3.4%, -11%, -2%
COc1cccc(C(N)CC(=O)O)c1 (stereo not drawn)
→ 6%, -6%, ., ., ?, 4.3%, ., -10%
Cc1ccc(S(=O)(=O)NC(CC(=O)O)c2cccs2)cc1 (stereo not drawn)
→ 11%, ., ., 2%, 1%, ., -5%, .
CC1=C(C#N)C(=O)NC(C)(C)C1
→ 3%, 14%, ?, -14%, 3%, 2.5%, 3%, 3%

Among those listed so far, two contain two or more sulfur atoms:
Fields: NS1 function inh, MARV entry inh, Lassa entry inh, StopGo reporter, SARS PLpro yeast, Cruzain inh Det, RE007 growth inh, Cruzain noTriton
CCOC(=O)c1sc(=S)n(-c2ccc(Cl)cc2)c1C
→ -9%, -1%, 1%, -7%, 5%, -5.0%, -28%, 9%
Cc1ccc(S(=O)(=O)NC(CC(=O)O)c2cccs2)cc1 (stereo not drawn)
→ 11%, ., ., 2%, 1%, ., -5%, .

Next part.
Fields: NS1 function inh, MARV entry inh, Lassa entry inh, StopGo reporter, SARS PLpro yeast, Cruzain inh Det, RE007 growth inh, Cruzain noTriton
CCOC(=O)C1=C(C)OC(N)=C(C#N)C1c1cccc(C)c1 (stereo not drawn)
→ 1%, -4%[46.1 µM], ., -12%, 1%, ., -5%, .
COc1ccc(C(=O)C2CCCN(Cc3ccc(Sc4nncn4C)o3)C2)cc1F (stereo not drawn)
→ 4%, -2%[46.1 µM], -4%[46.1 µM], -18%, 1%, ., 8%, .
CCOc1cc2c(cc1OCC)C(c1ccccc1OC)OC(=O)C2 (stereo not drawn)
→ 3%, ?, 2%, -14%, 5%, -5.0%, 9%, -4%
CN(Cc1ccccc1)C(=O)c1cn(C)c2ccc(S(=O)(=O)N3CCCCC3)cc2c1=O
→ ., -2%[46.1 µM], -6%[46.1 µM], 6%, ., -3.6%, ., -10%
S=c1[nH]c(-c2ccc(Cl)cc2)cs1
→ ., 0%[46.1 µM], ., 9%, 2%, ., -9%, .
O=C(NCCCn1ccnc1)C(Cl)(Cl)Cl
→ 5%, ., ., -9%, 0%, ., 29%, .
CCOc1ccccc1NC(=O)c1ccc(S(=O)(=O)N2CCCCC2)cc1
→ -6%, -18%[46.1 µM], ?, -13%, -10%, ., -3%, .
N#Cc1c(-c2cccs2)cc(-c2ccccn2)nc1N
→ -9%, ?, -24%, ?, 19%, -3.9%, -8%, -3%
CCOc1ccc(C(=O)Nc2cc(-c3nc4cc(OC)ccc4o3)ccc2C)cc1[N+](=O)[O-]
→ ., ?, 11%[46.1 µM], 40%[activator], ., 2.9%, ., 3%
Cc1ccccc1Nc1nc(N)nc(CSCC(=O)Nc2cccc(Br)c2)n1
→ ?, ?, 7%, ?, 12%, -0.5%, -7%, -9%
CCc1cc(=O)oc2cc(C)cc(O)c12
→ -100%, -6%, ., -20%, -22%, -0.3%, -2%, 5%
Cc1cccc(C)c1NC(=O)C1c2ccccc2Oc2ccccc21
→ 20%, 0%, 0%, -13%, 13%, -2.9%, 1%, ?
COC(=O)C1(C(=O)O)Cc2cc([N+](=O)[O-])ccc2N2CCCC21 (stereo not drawn)
→ 7%, ., ., -12%, 1%, ., 8%, .
CC(=O)c1cc2c(cc1NC(=O)c1cnc(C)cn1)OCO2
→ -2%, -25%, 7%, 0%, 7%, 0.2%, -2%, 0%

Screening results: PubChem, National Center for Advancing Translational Sciences (NCATS)
